Assay outcomes: PubChem BioAssay, National Center for Advancing Translational Sciences (NCATS)
Lassa entry – qHTS for Inhibitors of binding or entry into cells for Lassa Virus; Lassa virus pseudotyped entry inhibition, cell-based qHTS; control for the full effect not named in the record; many of its hits are not listed in these tables; Potency, µM (series often up to 49.2 µM), inactives show top-dose activity change, negative = inhibition, actives largely listed as inhibitors; actives 4.1% (n = 18,000); AID 720533, 2013; active = well fitted inhibition curve with a large enough effect; inconclusive = small, poorly fitted or top-dose-only effect; inactive = no such curve, though single readings can be large or run the other way; tested in HEK293 cells; further: luciferase read-out
Marburg entry – qHTS for Inhibitors of binding or entry into cells for Marburg Virus; Marburg virus pseudotype entry/binding inhibition, cell-based; control for the full effect not named in the record; many of its hits are not listed in these tables; AID 720532, 2013; Potency, µM (highest dose often 49.2 µM), for the others: top-dose activity change, negative = inhibition, hits mostly inhibitors; actives 6.5% (n = 18,000); active means well fitted inhibition curve with a large enough effect; inconclusive means small, poorly fitted or top-dose-only effect; inactive means no such curve, though single readings can be large or run the other way; tested in HEK293 cells; further: luciferase read-out
An asterisk follows results filed as active; ? = inconclusive; . = not tested or not shown; & = joins results of further samples; [ ] = dose if it differs, or a comment. On the % scale 0 is the no-effect control and ±100 the full control effect; potency means the concentration at half of the fitted maximal effect.

Start of the listing, in advance, three compounds:
no.	SMILES	Lassa entry	Marburg entry
1	CCC1CN(CCNC(=O)c2cc(C(C)C)nn2C)Cc2cc(OC)ccc2O1 (stereo unspecified)	?	-15.6%
2	CCCCC/C=C\C/C=C\CCCCCCCC(=O)NCCO	-9.1%&-7.2%&3.5%	1.1%&9.5%&-4.3%
3	Cc1ccc(C(=O)N(Cc2cc3cc4c(cc3nc2N2CCOCC2)CCC4)CC2CCCO2)s1 (stereo unspecified)	-3.6%	1.5%

The listing, from the first entry:
no.	SMILES	Lassa entry	Marburg entry
1	CCC1CN(CCNC(=O)c2cc(C(C)C)nn2C)Cc2cc(OC)ccc2O1 (stereo unspecified)	?	-15.6%
2	CCCCC/C=C\C/C=C\CCCCCCCC(=O)NCCO	-9.1%&-7.2%&3.5%	1.1%&9.5%&-4.3%
3	Cc1ccc(C(=O)N(Cc2cc3cc4c(cc3nc2N2CCOCC2)CCC4)CC2CCCO2)s1 (stereo unspecified)	-3.6%	1.5%
4	COc1ccc(C(=O)N2[C@@H](C(C)C)COc3cc(Br)ccc3S2(=O)=O)cc1	.	?
5	CCC(=O)c1c(O)cc(O)cc1O	-7.7%	10.9%
6	COc1cccc([C@@H]2Oc3ccc(Br)cc3C(=O)[C@H]2OC(=O)NCCc2ccc(OC)c(OC)c2)c1	33.0%[activator]	52.3%[activator]
7	Cc1ccc(C(=O)Nc2cnn(-c3ccc(C(=O)NCc4nc(-c5ccccc5)n[nH]4)cc3)c2)c(C)c1	?	?
8	c1ccc(CCNc2nc(-c3ccccc3)cs2)cc1	15.8µM*	?
9	CC1OCC23CC[C@@]4(C)CCC(C)(C)C[C@H]4[C@]2(C)CCC12C3CC[C@@]1(C)C2C(=O)CC(=O)[C@@H]1C (stereo partly specified)	-7.0%	?
10	c1ccc(CCc2nnc3n2CCN(Cc2ccc4ccccc4n2)CC3)cc1	-12.6%	11.3%
11	CCCCC/C=C\C/C=C\C/C=C\C/C=C\CCCCCC(=O)NCC(=O)O	-2.6%	16.9%
12	COc1ccc2c(c1)[C@@H](NC(=O)C(F)(F)F)C1CCCCC21c1ccccc1 (stereo partly specified)	4.6%[8.59 µM]	-4.1%[8.59 µM]
13	CC(=O)O[C@@H]1CC2C(C)(C)C(=O)C=C[C@]2(C)C2CC[C@]3(C)C(=CC[C@H]3C3CO[C@@H](C(C)(C)O)[C@H](O)C3)[C@@]21C (stereo partly specified)	-1.4%	-20.5%
14	O=C(NCC1Cc2cccc(-c3cccnc3)c2O1)c1ccc2cc[nH]c2c1 (stereo unspecified)	15.9%	0.5%
15	N=C(N)SCCc1cnc[nH]1	-16.3%&31.2%	-26.0%&8.0%
16	C=C1C(=O)O[C@@H]2C3OC3(C)CC/C=C(\C)CC[C@@H]12 (stereo partly specified)	-21.6%	-16.1%
17	CN(C)CC(C)(O)c1ccc2c(c1)CN(C(=O)c1ccc(-n3cccn3)cc1)CCO2 (stereo unspecified)	-8.8%	?
18	CCCCCCCc1cc2ccc(F)cc2c2c(C(=O)OC)c(C(=O)OC)c(C(=O)OC)n12	-5.0%[8.59 µM]	?
19	CC[C@H](C)[C@@H](NC(=O)O[C@@H]1C(=O)c2cc(OC)ccc2O[C@H]1c1cccc(OC)c1)C(=O)OC	-10.2%	-4.8%
20	COc1ccc([C@H]2C[C@H](O)[C@@H](n3cc(-c4ccc(F)cc4)nn3)CN2CC2CCCCC2)cc1	-23.3%	-27.4%
21	Oc1cn2c(n1)Nc1ccc(Cl)c(Cl)c1C2	0.5%&10.3%	-6.0%&24.9%
22	CCCc1ccc(C(=O)O)cc1	-15.1%	-3.2%
23	CC(C)Oc1ccc(C(=O)NCC2Cc3cc(Cl)cc(-c4ncccn4)c3O2)cc1 (stereo unspecified)	-7.8%	-4.9%
24	O=C1[C@@H]2CSCCS(=O)(=O)N2C(=O)N1c1cccc2ccccc12	32.6%[activator]	25.4%
25	O=C(NC(c1cccnc1)C(F)(F)F)c1cnn(-c2nccc(-c3cccs3)n2)c1C1CC1 (stereo unspecified)	-14.5%	-14.3%
26	N#C/C(=C\c1ccc(O)c(O)c1)C(=O)Nc1ccccc1	-14.3%	-22.2%
27	COc1ccc(C(=O)c2c(C)n(CCN3CCOCC3)c3ccccc23)cc1	-27.0%	-14.2%
28	COc1ccc(CN2CCC3(CCC(CNC(=O)c4ccco4)O3)CC2)cc1OC (stereo unspecified)	-7.9%	-20.2%
29	CN1CCc2cc3c(cc2C(=O)Cc2ccc4c(c2C1)OCO4)OCO3	-22.6%	?
30	COC(=O)c1cn([C@@H]2C[C@@H](C(=O)Nc3cccc(SC)c3)N(C3CCCC3)C2)nn1	-18.1%	-15.6%
31	Cc1cc(-c2ccnc(-n3ncc(C(=O)NCC(C)(C)N4CCOCC4)c3C)n2)c(C)s1	-7.3%	-8.1%
32	COC(=O)[C@H](COC(C)(C)C)NC(=O)O[C@@H]1Cc2cc(OC)ccc2O[C@H]1c1cccc(OC)c1	-3.7%	-5.8%
33	CCC(C)n1c(=O)[nH]c(C)c(Br)c1=O (stereo unspecified)	-3.2%	-19.9%
34	C=CC[C@@H]1C=C[C@@H](OC(=O)OCC)[C@@H](COC(=O)OCC)O1	-9.0%[8.59 µM]	17.4%[8.59 µM]
35	CCC(=O)NC[C@H](Cc1ccc(OCCc2nc(-c3ccccc3)oc2C)cc1)N/C(C)=C\C(=O)c1ccc(C(F)(F)F)cc1	-17.8%	23.1%
36	COC(=O)c1ccccc1C(=O)N1CCc2c(cnc(C)c2CNC(=O)c2ccccc2F)C1	4.5%	-15.0%
37	CCc1cc(C(=O)NCC2Cc3cc(-c4ccccc4C(C)=O)ccc3O2)no1 (stereo unspecified)	-1.3%	?
38	c1nc[n]([Sn]([CH]2CCCCC2)([CH]2CCCCC2)[CH]2CCCCC2)n1	?	?
39	COc1ccc(CN2Cc3ccccc3Oc3ccc(Cl)cc3S2(=O)=O)cc1	?	?
40	CC(=O)Nc1ccc(S(=O)(=O)c2ccc(N)cc2)cc1	-13.2%	11.3%
41	COCCN1C(=O)N[C@@H](c2cccc(C(F)(F)F)c2)[C@H](C(=O)OC)[C@H]1C	-3.7%[8.59 µM]	-22.5%[8.59 µM]
42	CC[C@H](C)[C@H](NC(=O)[C@@H](N)Cc1ccc(O)cc1)C(=O)NCC(=O)N[C@@H](CO)C(=O)N[C@@H](CCCN=C(N)N)C(N)=O	9.9%	10.0%
43	O=C(O)CCC(=O)OC[C@@H](NC(=O)C(Cl)Cl)[C@H](O)c1ccc([N+](=O)[O-])cc1	-17.1%	12.2%
44	OC1(c2cccnc2)CCN(Cc2ccc3c(c2)CN(Cc2cc(F)ccc2F)CCO3)CC1	0.3%	?
45	C=CCN1c2ccccc2C(=O)C(C)S1(=O)=O (stereo unspecified)	-11.3%	?
46	O=c1[nH]c2cc(Cl)c(O)cc2o1	5.2%	-4.7%
47	Cc1c(C)c2c(c(C)c1O)CCC(C)(CCCC(C)CCCC(C)CCCC(C)C)O2 (stereo unspecified)	-12.9%	4.1%
48	C=C1[C@@H]2CC[C@H]3[C@@]4(C)C[C@@H](O[C@@H]5O[C@H](CO)[C@H](OS(=O)(=O)O)[C@@H](OS(=O)(=O)O)[C@@H]5OC(=O)CC(C)C)C[C@@H](C(=O)O)[C@H]4CC[C@@]3(C2)[C@H]1O	-2.1%[17.8 µM]	6.2%[17.8 µM]
49	CC1C(=O)OC2C(O)C34C5CC(C(C)(C)C)C36C(OC(=O)C6O)OC4(C(=O)O5)C12O (stereo unspecified)	-7.5%	11.8%
50	COc1ccc(/C=C/C(=O)c2cc(O)ccc2O)cc1	0.891µM*	-20.2%
51	COc1cc(=O)n(C)c2c(OCC(O)C(C)(C)O)cccc12 (stereo unspecified)	-5.2%	-7.6%
52	OCCCc1ccccc1	2.0%&-10.2%	6.7%&12.6%
53	COC(=O)C1=C(C)N(CCc2cc(OC)c(OC)c(OC)c2)C(=O)NC1c1ccc(Br)cc1 (stereo unspecified)	.	?
54	CCc1c2c(nc3ccc(O)cc13)-c1cc3c(c(=O)n1C2)COC(=O)[C@]3(O)CC	?	?
55	CO/N=C(\C(=O)N[C@@H]1C(=O)N2C(C(=O)O)=C(CSc3nc(=O)c(O)nn3C)CS[C@H]12)c1csc(N)n1	-12.3%	3.8%
56	O=C(O)CCCc1ccc(N(CCCl)CCCl)cc1	-13.1%	-5.4%
57	C[N+]1(C)[C@@H]2CC[C@H]1CC(OC(=O)c1c[nH]c3ccccc13)C2 (stereo partly specified)	-7.8%	6.1%
58	C[C@H](NCCC(c1ccccc1)c1ccccc1)c1ccccc1	?	10µM*
59	Cc1cnc(-n2ncc(C(=O)N(C)C3CCOC3)c2-c2cccs2)nc1-c1ccc(F)cc1 (stereo unspecified)	-10.5%	-12.6%
60	CCN1C(=O)NC(CCc2ccccc2)C(C(=O)OC)=C1C (stereo unspecified)	-1.5%[8.59 µM]	16.7%[8.59 µM]

2 of the compounds above, with one line to a screen.
#56 O=C(O)CCCc1ccc(N(CCCl)CCCl)cc1
#57 C[N+]1(C)[C@@H]2CC[C@H]1CC(OC(=O)c1c[nH]c3ccccc13)C2 (stereo partly specified)
assay / compound	56	57
Lassa entry	-13.1%	-7.8%
Marburg entry	-5.4%	6.1%

Next part
no.	SMILES	Lassa entry	Marburg entry
61	COc1ccc2c(c1)[C@@]1(OCCC=C[C@@H]1C)C(=O)N2CC1CC1	12.5%[8.59 µM]	-6.7%[8.59 µM]
62	CC[C@]1(O)CC(O[C@@H]2CC(N(C)C)C(O)C(C)O2)c2c(cc3c(c2O)C(=O)c2c(O)ccc(O)c2C3=O)C1C(=O)OC (stereo partly specified)	-2.7%	?
63	COC(=O)[C@]12C[C@@H]3CCN(C(=O)N[C@@H]1c1ccccc1)[C@@]32C	.	75.7%[8.59 µM]
64	C=C(C)C[C@@]1(c2ccccc2)Oc2ccccc2C2=NCCN=C21	7.0%[8.59 µM]	-20.7%[8.59 µM]
65	CC(=O)N1CCN(Cc2cc(=O)oc3cc(C)ccc23)CC1	14.7%	18.6%
66	Cc1ccc2nc(CNC(=O)c3cc(NC(=O)c4ccccc4)cc4ncn(C5CCCC5)c34)cn2c1	-5.4%	-13.8%
67	FC(F)(F)c1cc(NC(=S)Nc2ccc3ccccc3c2)cc(C(F)(F)F)c1	0.1%	6.5%
68	Cc1cc(C)c(S(=O)(=O)Nc2ccccc2C(F)(F)F)c(C)c1	1.2%	-20.0%
69	CN1CC(CO)=C[C@H]2c3cccc4[nH]cc(c34)C[C@H]21	0.6%	1.4%
70	Cc1nnc2ccc(-c3cccc(C(F)(F)F)c3)nn12	-24.7%	7.0%
71	COP(=O)(OC)C(O)C(Cl)(Cl)Cl (stereo unspecified)	-9.4%	7.9%
72	COc1ccccc1C1CN(Cc2cccn2-c2ncccn2)Cc2ccccc2O1 (stereo unspecified)	?	?
73	CC1C(=O)N(Cc2cn(CC3CCCCC3)nn2)CCS(=O)(=O)N1Cc1ccc(-c2ccc(F)cc2)cc1 (stereo unspecified)	.	?
74	C=CCN1CCC2(C)c3cc(O)ccc3CC1C2C (stereo unspecified)	1.5%	?
75	O[C@@H]1C[C@H](c2ccccc2)N(CC2CCCCC2)C[C@@H]1n1cc(C2CC2)nn1	-21.2%	-27.3%
76	CC#CCN1C(=O)NC(c2ccccc2)C(C(=O)OC)=C1C (stereo unspecified)	8.1%[8.59 µM]	?
77	C=CCNc1cccc2c1S(=O)(=O)N[C@H](CC(C)C)CO2	.	-18.7%
78	CC(C)(O)C#Cc1ccc(CN2CCc3nnc(CCNC(=O)c4ccco4)n3CC2)cc1	-3.8%	?
79	COc1ccc2cc(CNC3CCS(=O)(=O)C3)c(-c3ccc(OC)c(OC)c3)nc2c1 (stereo unspecified)	8.8%	-11.7%
80	CC1(C)C(=O)C=C[C@]2(C)C1CC(=O)[C@]1(C)C2CC[C@@]2(C)C(c3ccoc3)OC(=O)C3O[C@@]321 (stereo partly specified)	-10.7%	?
81	CC(C)C[C@@H]1NC(=O)[C@H](CCCN)NC(=O)[C@H](C(C)C)NC(=O)[C@@H]2CCCN2C(=O)[C@@H](Cc2ccccc2)NC(=O)[C@H](CC(C)C)NC(=O)[C@H](CCCN)NC(=O)[C@H](C(C)C)NC(=O)[C@@H]2CCCN2C(=O)[C@@H](Cc2ccccc2)NC1=O	31.6µM*	?
82	c1ccc(C[C@@H](c2ccccc2)N2CCCCC2)cc1	-7.1%	?
83	COC1=C[C@H](C(=O)N[C@H]2CCCC[C@H]2NC(C)=O)[C@@]2(C)Cc3ccccc3[C@@H]2CC1=O	24.3%[8.59 µM]	-12.3%[8.59 µM]
84	C#CCN1C(=O)[C@]2(OC[C@@H]3Cc4ccccc4[C@@H]3C=C2C)c2ccccc21	?	2.7%[8.59 µM]
85	O=c1cc(-c2ccc(O)cc2O)oc2ccccc12	7.8%	49.6%[activator]
86	CCCCN1CC(COCc2ccccc2)Oc2cccc(Oc3ccccc3)c2S1(=O)=O (stereo unspecified)	3.96µM*	-42.2%
87	CCOC(OCC)P(=O)(O)CCCNCc1ccc(Cl)c(Cl)c1	-10.4%&-7.8%	9.8%&0.7%
88	C[C@]12C[C@@](C)(C=C1/C=C/c1ccc(C(F)(F)F)cc1)C(=O)C[C@H]2c1ccc(C(F)(F)F)cc1	-8.4%	0.5%
89	CN=C(NC)NCc1ccccc1	-18.0%	-5.6%
90	NS(=O)(=O)c1ccc(Cl)c(S(N)(=O)=O)c1	-12.2%	16.5%

The list is partial. The share of hits here may be higher or lower than overall.
